MbtI inh = blocks the Mycobacterium tuberculosis siderophore enzyme MbtI | P9WFX0 | purified MbtI enzyme, fluorescence intensity read-out | inhibition, %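 (about 17 µg/mL by stock and volumes)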 | actives 0.89% (n = 100,000) | AID 493033;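 active = above 50% in both replicates, above 80% if mildly self-fluorescent; inactive = the rest, strongly fluorescent compounds included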;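 note: 0% = mean of negative and 100% = mean of positive controls; one replicate is shown; some compounds called inactive have numbers as strong as hits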
Target sequence (P9WFX0 whole entry, looked up): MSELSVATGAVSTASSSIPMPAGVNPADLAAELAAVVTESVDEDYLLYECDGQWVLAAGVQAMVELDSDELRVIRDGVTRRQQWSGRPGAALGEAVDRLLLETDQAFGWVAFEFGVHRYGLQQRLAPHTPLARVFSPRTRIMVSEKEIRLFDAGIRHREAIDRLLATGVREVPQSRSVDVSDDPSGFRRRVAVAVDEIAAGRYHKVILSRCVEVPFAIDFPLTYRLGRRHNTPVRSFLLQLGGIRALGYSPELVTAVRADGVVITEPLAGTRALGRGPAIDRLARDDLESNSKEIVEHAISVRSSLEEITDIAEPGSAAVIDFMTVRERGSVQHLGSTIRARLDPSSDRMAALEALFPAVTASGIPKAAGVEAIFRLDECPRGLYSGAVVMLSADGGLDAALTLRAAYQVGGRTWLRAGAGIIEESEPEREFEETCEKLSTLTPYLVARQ
Polio RdRp inh = poliovirus RNA polymerase inhibition; poliovirus polymerase elongation, fluorescence polarization; hits give low values; % elongation, % (compound at 16.7 µg/mL); actives 0.66% (n = 150,000); in the data active = % elongation below about 90%; note: some results filed as inactive read as strong as hits
MenB inh = blocks the Mycobacterium tuberculosis MenB enzyme | P9WNP5 | MenB enzyme assay, absorbance read-out; some hits fall short of the stated cut | inhibition, %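 (about 12 µg/mL by stock and volumes)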 | actives 0.43% (n = 100,000);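 active = mean of two replicates above 30%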;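 note: 0% = no compound and 100% = wells with inactive enzyme; the first replicate is given; strong numbers were not always called active; inactives centre near -10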
Target sequence (P9WNP5 whole entry, looked up): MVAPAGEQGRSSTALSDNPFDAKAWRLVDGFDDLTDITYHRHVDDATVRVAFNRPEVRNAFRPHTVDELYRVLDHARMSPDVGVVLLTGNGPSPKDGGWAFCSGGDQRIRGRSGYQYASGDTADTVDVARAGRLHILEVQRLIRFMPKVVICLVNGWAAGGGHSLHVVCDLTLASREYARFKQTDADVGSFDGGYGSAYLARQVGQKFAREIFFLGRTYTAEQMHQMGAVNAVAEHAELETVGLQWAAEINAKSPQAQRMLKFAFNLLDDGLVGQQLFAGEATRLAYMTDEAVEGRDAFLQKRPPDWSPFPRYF
Polio RdRp inh intensity = further read-out of Polio RdRp inh, marked with its call; % elongation; measured here: total intensity read-out; formula for this scale not given here;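 total fluorescence in place of polarization; lower means less elongation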
* marks the source's active call; other numbers are inactive results; i = inactive; · = no result given; & = joins results of further samples.

SMILES	MbtI inh	Polio RdRp inh	Polio RdRp inh intensity	MenB inh
Cc1cc(=O)[nH]c2c1c(C)nn2C1CCCC1	·	103	100	-5
Cc1ccc(OC(C)C(=O)O)cc1 (configuration not stated)	-7	102	102	·
CCCCn1c(-c2ccccc2)nc(=S)c2c1CCCC2	-7	100	100	-39
Cn1c(=O)cc(OCC(=O)NCCCN2CCCC2)c2ccccc21	10	102	99	7
COc1cc(/C=C(\C#N)C(=O)Nc2ccc(S(N)(=O)=O)cc2)ccc1O	27	109	110	13
CC1CCCCN1C(=S)Nc1ccccc1 (configuration not stated)	-3	101	104	29
O=C(COc1ccccc1)NCc1ccccc1	-7	99	102	-2
Fc1ccc(-c2cc(C(F)(F)F)nc(NC3CCCC3)n2)cc1	2	101	105	-10
O=C(O)c1ccc2nc3ccsc3c(=O)n2c1	-15	101	126	6
Cc1ccc(CCSc2ccc(Cl)c(Cl)c2)cn1	·	105	110	-24
CSc1ncccc1C(=O)OCC(=O)N(C)C	28	104	101	-15
CCC(=O)N(C)C1CCS(=O)(=O)C1 (configuration not stated)	-13	103	101	-5
CN(c1ccc(C(=O)NN=C2CCCC2)cc1)S(=O)(=O)c1ccccc1	3	102	100	-19
COc1ccc(S(=O)(=O)N2CCCN(S(=O)(=O)c3ccc(OC)cc3C)CC2)c(C)c1	-5	104	103	1
C1=C2Nc3ccccc3N=C(c3ccccc3)C2NN1c1ccccc1 (configuration not stated)	1	103	106	-6
COC(=O)c1ccc(CSc2nnc(COc3ccccc3)o2)o1	-11	106	99	-6
C=CCn1ccc2c(OCC(=O)c3ccccc3)cccc2c1=O	3	·	·	-11
O=C1CCC(C(=O)OCC(=O)N(C2CCCCC2)C2CCCCC2)=NN1	1	105	110	-17
Cc1cc(NC(=O)/C(=C/c2cccs2)c2ccsc2)no1	-6	103	106	-10
CCN1CCC2(CC1)NCCc1c2[nH]c2ccc(OC)cc12	29	99	101	-6
CCOC(=O)C1CCCN(CCC(=O)Nc2ccc(Br)c(C)c2)C1 (configuration not stated)	-7	100	104	-12
Cc1nc2ncnn2c(C)c1CCC(=O)N(C)CC(=O)Nc1ccc(OC(F)(F)F)cc1	-9	103	106	-30
N#C/C(C(N)=O)=C1/SC=C(c2ccccc2)N1Cc1ccccc1	3	103	106	9
C=C(C)C1CC=C(C)C(=O)C1 (configuration not stated)	-1	101	97	-23
NC(=O)CCNC(=O)C(c1ccccc1)c1ccccc1	·	101	105	-6

Shown bar-delimited: entries from further up
mol | MbtI inh | Polio RdRp inh | Polio RdRp inh intensity | MenB inh
Cc1nc2ncnn2c(C)c1CCC(=O)N(C)CC(=O)Nc1ccc(OC(F)(F)F)cc1 | -9 | 103 | 106 | -30
N#C/C(C(N)=O)=C1/SC=C(c2ccccc2)N1Cc1ccccc1 | 3 | 103 | 106 | 9

Additional structures:
SMILES	MbtI inh	Polio RdRp inh	Polio RdRp inh intensity	MenB inh
O=C(CCOc1ccccc1F)N1CCN(c2ccccc2O)CC1	-4	102	103	·
CC(C)(C)c1csc(NC(=O)c2ccncc2)n1	-3	101	95	·
COC(=O)c1ccc(/C=N/n2cc(-c3ccccc3)[nH]c2=S)cc1	7	132	199	-32
CC(CC(=O)O)NC(=O)c1ccc(OC(F)F)cc1 (configuration not stated)	14	98	104	-10
Cc1ccc2cc(CCNC(=O)c3ccc(S(=O)(=O)N4CCOCC4)cc3)c(=O)[nH]c2c1C	1	101	106	-20
Cc1ccc(C2N3CC(C)(C)CN23)cc1 (configuration not stated)	12	99	101	-42
COCCNC(=O)c1cc(S(=O)(=O)N2CCOCC2)cn1C	-16	103	103	6
O=c1c(Cl)c(N2CCCC2)cnn1-c1ccccc1	5	100	97	7
CCCCC/C=C\C[C@@H](O)/C=C/C=C\C/C=C\CCCC(=O)O	-4	100&101	100&99	13
Cc1ccc2c(c1)NC(C)c1ccccc1O2 (configuration not stated)	-8	99	102	-29
O=C(Nc1ccc2snnc2c1)NC1CC1	55	105	104	2
N#Cc1ccsc1NC(=O)Cc1cccs1	5	105	107	-13
CSCCC(C(=O)O)N1C(=O)/C(=C/c2cccnc2)SC1=S (configuration not stated)	-14	101	97	-45
C=CCc1nc2ccccc2c(=O)n1CC=C	·	103	104	-3
CCCN1CCN(CCCNC(=S)Nc2ccc(F)cc2)CC1	-6	99	100	5
COC(=O)C(Cc1ccccc1)NC(=O)c1ccc2c(c1)C(=O)N(Cc1ccco1)C2=O (configuration not stated)	-2	103	105	15
C/C(=N\NC(N)=S)c1ccc(O)cc1	32	104	102	-24
O=C(O)c1cccc(Oc2ccccc2)c1	1	102	104	·
CCc1ccc(C(=O)Cn2c(N3CCOCC3)nc3ccccc32)cc1	-8	98	100	·
Nc1ccc(C(=O)N/N=C/c2ccccc2)cc1	·	99	98	-11
COC(=O)c1cc(CSc2nnc(NCc3ccccc3)s2)oc1C	-2	103	105	-22
COc1ccc(CNC(=O)Cn2c(SC)nc3ccccc32)cc1	-9	100	104	·
Cc1ccc(S(=O)(=O)NCc2nc3ccccc3c(=O)n2N)cc1	-8	100	104	-12
CN1CCN(C(CNC(=O)c2ccco2)c2ccc3c(c2)OCO3)CC1 (configuration not stated)	-3	98	105	-23
O=S(=O)(NCCc1ccccc1)c1cccs1	-13	102	100	-23

Other entries follow:
SMILES	MbtI inh	Polio RdRp inh	Polio RdRp inh intensity	MenB inh
O=C(NCC1CCCCC1)c1ccc(Br)o1	2	100	102	-18
Clc1cccc(Cl)c1-c1cc(-c2ccccn2)on1	-7	103	108	-3
Cc1cc(/C=N/NC(N)=S)c(C)n1CC(F)(F)F	16	101	107	-42
CC(C)CCN(Cc1ccco1)S(=O)(=O)c1ccc(-c2cc(C(F)(F)F)no2)s1	-5	99	102	-33
COc1ccc(C(=O)Nc2ccc3c(c2)nc2n3CCN(Cc3ccccc3)C2)cc1	81	103	107	15
CCc1c(C)c2ccc(OCC(=O)C(C)(C)C)c(C)c2oc1=O	-13	102	102	-6
O=C1CC(C(=O)O)C(c2ccccc2)O1 (configuration not stated)	-4	103	105	-10
CCOC(=O)c1nc(N2CCCC(C)C2)c2ccccc2n1 (configuration not stated)	16	101	101	-24
Clc1cc(Cl)c(NN=C2CCCC2)c(Cl)c1	10	101	95	6
Cc1nnc(SCC(=O)N2N=C3/C(=C/c4ccco4)CCCC3C2c2ccco2)n1-c1ccccc1 (configuration not stated)	1	101	88	-28
CCCCCc1ccc(Nc2cn[nH]c(=O)c2Cl)cc1	6	97	97	4
COC(=O)/C(C#N)=C1\NC(C)=NC(SC)=C1C#N	-2	114	124	10
COc1ccc(NC(=O)COC(=O)c2ccc(-n3cnnn3)cc2)cc1Cl	-47	101	99	12
Cc1nnc(SCc2nc3sc4c(c3c(=O)[nH]2)CCCC4)n(N)c1=O	17	109	118	-35
COCCNC(=O)c1cc(-c2ccccn2)nc2ccc(S(=O)(=O)N3CCC(C)CC3)cc12	9	99	97	11
COc1ccccc1Nc1nn2c(=O)c3ccccc3nc2s1	60	99	100	-10
CCOC(=O)N1CCC(NC2CCCCCC2)CC1	-5	103	104	-4
Cn1c2ccccc2c2cnn(CC(=O)N3CCc4ccccc4C3)c(=O)c21	19	103	98	-34
COC(=O)C1C(=O)NC(SCc2ccccc2)=C(C#N)C1c1ccccc1 (configuration not stated)	-5	102	96	-27
Cc1noc(C)c1CS	2	102	105	-22
O=C(Nc1cccc(C(F)(F)F)c1)c1ccc2nc[nH]c2c1	0	100	101	-14
CCN(CC)S(=O)(=O)c1ccc(Cl)c(C(=O)Oc2ccc(C)cc2-n2nc3ccccc3n2)c1	-10	103	109	-15
O=c1oc2ccccc2cc1-c1nc(-c2ccccc2)no1	-4	104	101	7
CCC1Oc2ccccc2N(CC(=O)N2CC(C)CC(C)C2)C1=O (configuration not stated)	-5	102	101	5
O=C(CNC1CC2CC=CC21)Nc1ccc(F)c(F)c1 (configuration not stated)	-6	101	104	-10

Structures shown so far with a cyano group (five):
SMILES	MbtI inh	Polio RdRp inh	Polio RdRp inh intensity	MenB inh
COc1cc(/C=C(\C#N)C(=O)Nc2ccc(S(N)(=O)=O)cc2)ccc1O	27	109	110	13
N#C/C(C(N)=O)=C1/SC=C(c2ccccc2)N1Cc1ccccc1	3	103	106	9
N#Cc1ccsc1NC(=O)Cc1cccs1	5	105	107	-13
COC(=O)/C(C#N)=C1\NC(C)=NC(SC)=C1C#N	-2	114	124	10
COC(=O)C1C(=O)NC(SCc2ccccc2)=C(C#N)C1c1ccccc1 (configuration not stated)	-5	102	96	-27

Remaining list, next part
SMILES	MbtI inh	Polio RdRp inh	Polio RdRp inh intensity	MenB inh
O=S(=O)(c1ccc(Nc2ccc(-c3ccccc3)nn2)cc1)N1CCCC1	-3	106	102	8
CCC1(C)CC(=O)NC(=O)C1	-3	99	100	-7
CC(C)N1CSC(=S)N(C(C)C)C1	-8	64*	73*	-5
O=C(NN1C(=O)c2ccccc2NC12CCCC2)c1ccccc1	·	100	107	5
COC(=O)C1=C(O)/C(=C\c2cccc3ccccc23)N=C1C	2	99	101	-98
CC1CN(C(=O)COC(=O)COc2cc(Cl)c(Cl)cc2Cl)CC(C)O1 (configuration not stated)	-2	117	117	-23
CC(C)(C)c1ccc(C(=O)NC2=NCCS2)cc1	1	103	95	·
CC(C)c1ccc(NCCNC2CCCCCC2)cc1	-11	101	98	-21
O=C1CCN(C(=O)CCCc2nc3ccccc3s2)CC1	3	103	98	3
CCC1(C)NC(=O)NC1=O (configuration not stated)	-13	99	100	-23
O=C(CCCn1c(=O)c2ccccc2n(CC(=O)c2ccc(F)cc2)c1=O)NC1CCCC1	4	103	97	3
OC1CSc2nc3ccccc3n21 (configuration not stated)	7	99	100	-19
CCOc1ccccc1NC(=S)N(C1CCCCC1)C(C)c1ccco1 (configuration not stated)	-13	100	102	-11
CCCN=C1CC(C)(C)CC(=O)/C1=C(\O)Cc1ccc(OCC)c(OCC)c1	·	106	96	-19
O=C(O)c1ccccc1OCc1cn2ccccc2n1	100	100	106	-26
Nc1nn2cc(-c3ccc(Cl)s3)nc2c2ccccc12	i	104	106	·
CCn1cc(CN(Cc2ccccc2)C(=S)Nc2cc(C)ccc2C)c2ccccc21	-6	100	103	-47
c1ccc(-c2csc3ncnc(N4CCCCC4)c23)cc1	2	98	101	2
CC1CCCCN1c1nc(-c2ccccc2O)nc2ccccc12 (configuration not stated)	-2	105	106	·
Cc1nc2cccnc2n1-c1ccc(CC(=O)N2CCc3ccccc32)cc1	-12	102	106	-9
O=C(CSc1nnc(CNc2ccccc2)o1)c1ccc2c(c1)OCCO2	10	101	102	-1
CCCN1C(=O)C2CC(C)=C(C)CC2C1=O (configuration not stated)	6	98	107	-16
CC(=O)OC1CCCCC1C1=CCCCC1 (configuration not stated)	·	103	102	-5
CCCNC(=O)COc1ccccc1OC	-22	102	104	-6
COc1ccc(-c2coc3c(C)c4oc(=O)c5cc(OC)ccc5c4cc23)cc1	22	101	93	-1

Reformatted in CSV form: 5 of the compounds above
Structure,MbtI inh,Polio RdRp inh,Polio RdRp inh intensity,MenB inh
O=C(O)c1ccccc1OCc1cn2ccccc2n1,100,100,106,-26
OC1CSc2nc3ccccc3n21 (configuration not stated),7,99,100,-19
O=C1CCN(C(=O)CCCc2nc3ccccc3s2)CC1,3,103,98,3
c1ccc(-c2csc3ncnc(N4CCCCC4)c23)cc1,2,98,101,2
CC(C)(C)c1ccc(C(=O)NC2=NCCS2)cc1,1,103,95,·

Further entries:
SMILES	MbtI inh	Polio RdRp inh	Polio RdRp inh intensity	MenB inh
O=c1[nH]c(O)c(/C=C/N=Nc2ccccc2)c(=O)[nH]1	31	100	100	-34
Cn1c(CN2CCCCC2)nc2ccccc21	-10	108	103	-9
Cc1cccc(C(=O)OCC(=O)N2c3ccccc3CC2C)c1O (configuration not stated)	1	103	109	·
Cc1ccc(Nc2oc(-c3ccc(C)cc3)nc2C#N)cc1	-26	100	100	-10
OC(CNCC1CCCO1)COc1ccc(-c2ccccc2)cc1 (configuration not stated)	-15	103	103	-31
N#Cc1c(N=CN2CCCCC2)nc2c(c1-c1ccccc1)CCCC2	-6	102	108	17

From PubChem
